From PubChem
Methyltransferases = Primary Screen for Target Class Profiling of Small Molecule Inhibitors of Methyltransferases. calls only at 40 µM. purified enzyme, MTase-Glo SAH luminescence; stronger effect = lower value. actives 3.9% (n = 25,000). AID 1745853, 2022; active = -50% or lower on at least one of six enzymes; inconclusive = the cases between; inactive = as a rule above -30% on all six;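 also: enzymes were COMT GAMT GNMT HNMT NNMT and PNMT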
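Each enzyme was assayed with SAM and its substrate. SAH formation detected by MTase-Glo luminescence; single-point 40 uM screen[…].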
Calls only; i = inactive; ? = inconclusive; + = active, no number. % is scaled to controls: 0 for no effect and ±100 for the full control effect.

SMILES	Methyltransferases
CCN(CC)CCN1C(=O)c2ccc(-c3ccco3)n2CC1(C)C(=O)NC1CCC(C)CC1 (configuration not stated)	i
Cc1cn(C[C@H](N)C(=O)O)c(=O)n(Cc2ccsc2C(=O)O)c1=O	i
COc1ccc(N2CCN(C(=O)c3ccc4c(=O)nc5c(-c6cccc(C)c6)n[nH]n5c4c3)CC2)cc1	i
Cn1c(=O)c2ccc(C(=O)NC3CCCCC3)cc2n2c(=O)n(Cc3ccc(Cl)cc3)nc12	i
CC1CCN(CCCNC(=O)CCc2nnc3n(Cc4ccc(Cl)cc4)c(=O)c4ccccc4n23)CC1	+
CC1(C(=O)NCc2ccc(Cl)cc2)Cn2c(ccc2-c2ccco2)C(=O)N1Cc1ccc2c(c1)OCO2 (configuration not stated)	i
CC(=O)c1c(C)cccc1O[C@@H]1O[C@H](CO)[C@@H](O)[C@H](O)[C@H]1O	+
CC(C)CNC(=O)c1ccc2c(=O)n(CC(C)C)c3n[nH]c(=O)n3c2c1	i
CSc1ccc(CNC(=O)CCn2ccc3cc(S(=O)(=O)N4CCC(C)CC4)ccc32)cc1	i
CCc1ccccc1N1C(=O)c2cc(-c3ccc(OC)cc3)nn2CC1(C)C(=O)NCc1ccccc1OC (configuration not stated)	i
CC(C)Cn1c(=O)c2ccc(C(=O)NC3CCCCC3)cc2n2c(=O)n(C)nc12	i
CC1(C)CC[C@]2(C(=O)O[C@@H]3O[C@H](CO)[C@@H](O)[C@H](O)[C@H]3O)CC[C@]3(C)C(=CCC4[C@@]5(C)CC[C@H](O[C@@H]6O[C@H](C(=O)O)[C@@H](O)[C@H](O)[C@H]6OC6OC(CO)C(O)C(O)C6O)C(C)(C)C5CC[C@]43C)[C@@H]2C1 (some centres not stated)	i
COC(=O)C(CC1(O)c2ccccc2N2C(=O)C(CC(C)C)NC21)n1cnc2ccccc2c1=O (configuration not stated)	i
CC1=CC(=O)CC2C1(O)CCC(C)C21CC(c2ccoc2)OC1=O (configuration not stated)	i
Cc1nc(CC(=O)NCc2cccnc2N2CCOCC2)cs1	i
CC(C)OCCCn1c(=O)c2ccccc2n2c(CCC(=O)NCCC3=CCCCC3)nnc12	i
COCCCNC(=O)c1cnc2n[nH]c(-c3ccccc3)c2n1	+
Cc1cccc(CNC(=O)c2cc3n(n2)CC(C)(C(=O)NC2CCCCC2)N(C)C3=O)c1 (configuration not stated)	i
Cc1noc(C)c1-c1cnc(Nc2ccc(F)c(Cl)c2)c2c1CCO2	i
Cc1cccnc1C(=O)N[C@@H]1CN(S(C)(=O)=O)C[C@H]1CN(C)C	i
C/C(=C\C(=O)C[C@@]12C(=O)O[C@]3(C)CC[C@H]1C[C@H]23)C(N)=O	i
Cc1cncc(C(=O)N2CC(CO)C3(CCNCC3)C2)c1 (configuration not stated)	i
CC(C)CNC(=O)c1ccc2c(=O)n(Cc3ccccc3)c3nn(CC(=O)NC4CCCC4)c(=O)n3c2c1	i
CCC(C)NC(=O)c1ccc2c(=O)n(C3CC3)c3nn(CC(=O)Nc4ccc(C)cc4)c(=O)n3c2c1 (configuration not stated)	i
CCOC(=O)CNC(=O)C1(C)Cn2nc(-c3ccc(OC)cc3)cc2C(=O)N1C (configuration not stated)	i
C=C1CC[C@@H]2[C@@](C)(CO[C@@H]3O[C@H](CO)[C@@H](O)[C@H](O)[C@H]3O)[C@H](O)CC[C@@]2(C)[C@@H]1CC/C(C)=C/CO[C@@H]1O[C@H](CO)[C@@H](O)[C@H](O)[C@H]1O	i
CCOC(=O)c1cc2n(n1)CC(C)(C(=O)NC1CCCCCC1)N(Cc1ccc(F)cc1)C2=O (configuration not stated)	i
N#Cc1ccc(OCC2CN(Cc3cccc(C(F)(F)F)c3)C(=O)c3c(ccnc3-c3ccc(OCC(=O)O)cc3)O2)cc1 (configuration not stated)	i
Cc1cc2c(cc3n2CC(C)(C(=O)NC2CCCCCC2)N(C2CCCCC2)C3=O)o1 (configuration not stated)	i
CC1(C(=O)NC2CCCCCC2)Cn2nc(-c3ccco3)cc2C(=O)N1Cc1ccccc1Cl (configuration not stated)	i
CCCCCC(=O)N1C[C@H](C(=O)NC)[C@H]2c3ccccc3N(CC3CC3)C(=O)[C@]21C	i
Cc1ccc(CS(=O)(=O)NC2CCc3n[nH]c(=O)n3CC2)cc1C (configuration not stated)	i
COc1c2c(c(CO)c3c1C(=O)OC3)OC1(C)CCC3(O)C(C)(C)OC(=O)CCC3(C)C1C2 (configuration not stated)	i
Cc1cc(-c2cc(C(=O)NCc3c(C)cc(C)[nH]c3=O)c3c(c2)ncn3C)ccn1	i
Cc1ncccc1-c1nc2cc(C(=O)NCc3ccccc3F)ccc2o1	i
CCc1ccccc1NC(=O)Cn1nc2n(CC(C)C)c(=O)c3ccc(C(=O)NC(C)CC)cc3n2c1=O (configuration not stated)	i
COC(=O)c1cc2n(n1)CC(C)(C(=O)NC1CCC(C)CC1)N(CCc1ccc(Cl)cc1)C2=O (configuration not stated)	i
COc1ccccc1N1CCN(c2nc3c(S(=O)(=O)c4ccccc4)nnn3c3ccccc23)CC1	i
C=C(C)[C@H]1CC[C@]2(C(=O)O)CC[C@]3(C)C(CCC4[C@@]5(C)CCC(=O)C(C)(C)C5CC[C@]43C)C12 (some centres not stated)	i
CC(C)Cn1c(=O)c2ccc(C(=O)NC(C)C)cc2n2c(SCc3cccc(Cl)c3)nnc12	i

Structures shown so far with a furan ring, fused or not (five):
SMILES	Methyltransferases
CCN(CC)CCN1C(=O)c2ccc(-c3ccco3)n2CC1(C)C(=O)NC1CCC(C)CC1 (configuration not stated)	i
CC1(C(=O)NCc2ccc(Cl)cc2)Cn2c(ccc2-c2ccco2)C(=O)N1Cc1ccc2c(c1)OCO2 (configuration not stated)	i
CC1=CC(=O)CC2C1(O)CCC(C)C21CC(c2ccoc2)OC1=O (configuration not stated)	i
Cc1cc2c(cc3n2CC(C)(C(=O)NC2CCCCCC2)N(C2CCCCC2)C3=O)o1 (configuration not stated)	i
CC1(C(=O)NC2CCCCCC2)Cn2nc(-c3ccco3)cc2C(=O)N1Cc1ccccc1Cl (configuration not stated)	i

Going on with the list:
SMILES	Methyltransferases
CN(C)[C@@H]1CN(Cc2ccncc2F)CC[C@@H]1CNC(=O)C1CC1	i
Cc1ccc(N2C(=O)c3nc4ccccc4n3CC2(C)C(=O)NC2CCC(C)CC2)cc1 (configuration not stated)	i
CCCNC(=O)N1CCC2(CC1)N(c1ccccc1)C(=O)CS2=O (configuration not stated)	i
C[C@@H]1C/C=C/C=C\C=C\C=C\[C@H](O[C@@H]2O[C@H](C)[C@@H](O)[C@H](N)[C@@H]2O)C[C@@H]2O[C@](O)(C[C@@H](O)C[C@H]3O[C@@H]3/C=C/C(=O)O1)C[C@H](O)[C@H]2C(=O)O	?
Cc1ccccc1S(=O)(=O)NCCn1c(CCc2ccccc2)nc2ccccc21	i
COc1ccccc1-c1onc(C)c1C(=O)NCCc1cccc(Cl)c1	i
COC(=O)c1cc2n(n1)CC(C)(C(=O)NC1CCC(C)CC1)N(c1ccc(C)cc1Cl)C2=O (configuration not stated)	i
C=C(C)C1Cc2cc(C(=O)OC3OC(CO)C(O)C(O)C3O)ccc2O1 (configuration not stated)	+
C=C1C(=O)OC2CC(C)C(CCC(C)O)=CCC12 (configuration not stated)	+
CN1C(=O)c2cc(C(=O)NC3CCCCC3)nn2CC1(C)C(=O)NC1CCCC1 (configuration not stated)	i
CC1(C(=O)NC2CCCCCC2)Cn2c(cc3sccc32)C(=O)N1CCc1ccccc1 (configuration not stated)	i
COc1ccc(Cl)cc1NC(=O)C1CN(S(C)(=O)=O)CC12CCCCC2 (configuration not stated)	i
CC(C)C(=O)c1cn(CC(=O)COc2ccc(Oc3ccccc3)cc2)c2ccc(C(=O)O)cc12	i
CC1=CC(=O)C(C(C)C)=CC1=O	?
Cc1ccccc1N1C(=O)c2cc(-c3ccco3)nn2CC1(C)C(=O)NC1CCCCC1 (configuration not stated)	i
Cc1ccc(CNC(=O)C2(C)Cn3nc(C(=O)NCCCOC(C)C)cc3C(=O)N2C)cc1 (configuration not stated)	i
COC(=O)NC(C)C(=O)N1Cc2cnc(Cc3ccc(OC)cc3)nc2C1 (configuration not stated)	i
O=C(c1ccc(Nc2nccc(-c3cc4ccccc4s3)n2)cc1)N1CCC(N2CCCC2)CC1	+
Cc1c(Cl)cccc1NC(=O)Cn1c(=O)c2ccccc2n2nncc12	i
Cc1ccsc1-c1[nH]nc2ncc(-c3ccnn3C)nc12	?
COC(=O)c1ccc(O[C@@H]2O[C@H](CO)[C@@H](O)[C@H](O)[C@H]2O)c(OC)c1	i
Cn1cc(-c2cnc(Nc3ccc(F)c(Cl)c3)c3c2CCO3)cn1	i
COCCNC(=O)[C@H]1C[C@H](Oc2ccccc2)CN1Cc1ccncc1	i
CC1CCN(S(=O)(=O)c2ccc3c(ccn3CC(=O)NCc3ccc(N(C)C)cc3)c2)CC1	i
CC1(C)[C@H](Cc2cc(-c3ccccc3)on2)C[C@@H]1NCC1CC1	+
OCC1=CC[C@@H]2C=CO[C@@H](O[C@@H]3O[C@H](CO)[C@@H](O)[C@H](O)[C@H]3O)[C@H]12	i
N#Cc1cccc(C(=O)NCc2nnc3ccc(-c4ccc(F)cc4)nn23)c1	i
Cc1cn(C[C@H](NC(=O)c2cccc(F)c2)C(=O)O)c(=O)[nH]c1=O	i
Nc1nc(Cl)nc2c1ncn2C1OC(CO)C(O)C1F (configuration not stated)	i
CC1(C)SCCN(S(=O)(=O)c2ccc(Oc3ccncc3)cc2)[C@H]1C(=O)NO	i
COc1cccc(NCc2nnc(C(=O)N3CCC[C@@H]3c3cccc(F)c3)n2-c2ccccc2)c1	i
CC(C)CCn1c(=O)c2ccc(C(=O)NC(C)C)cc2n2c(=O)n(CC(=O)c3ccccc3)nc12	i
O=C(O)CNC(=O)CNC(=O)CNC(=O)CSC(=O)c1ccccc1	i
O=C(CC1CCN(S(=O)(=O)c2ccc(F)cc2F)C1)NCc1ccccc1 (configuration not stated)	i
CC(C)Nc1ncc(C(=O)NC2CCCN(CCc3ccccc3)C2)cn1 (configuration not stated)	i
CC1(C(=O)NC2CCCCC2)Cn2c(cc3occc32)C(=O)N1Cc1cccc(Br)c1 (configuration not stated)	i
O=C(NCc1nnc2n1C(C(=O)NCc1cccnc1)CC2)c1cccnc1 (configuration not stated)	i
COc1ccc2c(c1)c(CC(=O)O)c(C)n2C(=O)c1ccccc1	i
CCN(Cc1noc(C2CCC2)n1)C(=O)c1cc(C(C)C)n2ncnc2n1	i
CC1CCCCC1NC(=O)C1(C)Cn2c(ccc2-c2ccco2)C(=O)N1Cc1ccccc1 (configuration not stated)	i

Sorted by SMILES length (highest first): part of the list above
SMILES	Methyltransferases
COC(=O)c1ccc(O[C@@H]2O[C@H](CO)[C@@H](O)[C@H](O)[C@H]2O)c(OC)c1	i
O=C(CC1CCN(S(=O)(=O)c2ccc(F)cc2F)C1)NCc1ccccc1 (configuration not stated)	i
Cn1cc(-c2cnc(Nc3ccc(F)c(Cl)c3)c3c2CCO3)cn1	i

Further entries follow:
SMILES	Methyltransferases
C=C1C(=O)OC2/C=C(\COC(C)=O)CC/C=C(\C=O)CC(OC(=O)C(C)CC)C12 (configuration not stated)	?
CCC(C)NC(=O)c1ccc2c(=O)n(CC(C)C)c3nn(CC(=O)NC4CCCC4)c(=O)n3c2c1 (configuration not stated)	i
CC(C)OCCCn1c(=O)c2cc(Cl)ccc2n2c(SCc3ccccc3F)nnc12	i
CC(C)OCCCn1c(=O)c2ccccc2n2c(CCC(=O)NCc3ccc4c(c3)OCO4)nnc12	i
CCN1C(=O)c2cc(C(=O)N3CCN(c4ccccc4F)CC3)nn2CC1(C)C(=O)NC1CCCC1 (configuration not stated)	i
Cc1c(Cl)cccc1N1C(=O)c2cc3ccccc3n2CC1(C)C(=O)NCCC(C)C (configuration not stated)	i
Cc1ccc(CN2C(=O)c3cc(-c4ccccc4)nn3CC2(C)C(=O)NCc2ccccc2)cc1 (configuration not stated)	i
CC1CCC(N2C(=O)c3ccc(-c4ccco4)n3CC2(C)C(=O)NC2CCCCCCC2)CC1 (configuration not stated)	i
Cc1ccc(N2C(=O)c3cc4occc4n3CC2(C)C(=O)NC2CCCCCC2)cc1 (configuration not stated)	i
O=C(c1ccc(F)cc1)N1CCC(C(=O)N2CCCC(c3nc4ccncc4[nH]3)C2)CC1 (configuration not stated)	i
CCc1ccc(N2C(=O)c3cc(-c4ccc(OC)cc4)nn3CC2(C)C(=O)NC2CCCCC2)cc1 (configuration not stated)	i
C=C(C)[C@@H]1CC[C@](C)(O)[C@@H](OC(=O)c2ccccc2)C1	i
O=C1NC2(CCN(Cc3cncs3)C2)OCc2ccccc21 (configuration not stated)	i
CCCn1c(=O)c2cc(F)ccc2n2c(SCC(=O)Nc3ccc(C)cc3)nnc12	i
CC1CCCCC1NC(=O)C1(C)Cn2c(cc3sccc32)C(=O)N1Cc1ccco1 (configuration not stated)	i
COc1ccccc1CCNC(=O)c1ncn2c1C(=O)N(C1CC1)C(C)(C(=O)NC1CCCC1)C2 (configuration not stated)	i
CCOC(=O)c1cc2n(n1)CC(C)(C(=O)NCc1ccccc1)N(CCc1ccccc1OC)C2=O (configuration not stated)	i
CC1CCN([C@@H]2[C@H](O)[C@H](CO)O[C@@H]2CNC(=O)c2ccc(F)c(Cl)c2)CC1	i

Structural class: the entries above containing an NH in an aromatic ring
SMILES	Methyltransferases
COc1ccc(N2CCN(C(=O)c3ccc4c(=O)nc5c(-c6cccc(C)c6)n[nH]n5c4c3)CC2)cc1	i
CC(C)CNC(=O)c1ccc2c(=O)n(CC(C)C)c3n[nH]c(=O)n3c2c1	i
COCCCNC(=O)c1cnc2n[nH]c(-c3ccccc3)c2n1	+
Cc1ccc(CS(=O)(=O)NC2CCc3n[nH]c(=O)n3CC2)cc1C (configuration not stated)	i
Cc1cc(-c2cc(C(=O)NCc3c(C)cc(C)[nH]c3=O)c3c(c2)ncn3C)ccn1	i
Cc1ccsc1-c1[nH]nc2ncc(-c3ccnn3C)nc12	?
Cc1cn(C[C@H](NC(=O)c2cccc(F)c2)C(=O)O)c(=O)[nH]c1=O	i
O=C(c1ccc(F)cc1)N1CCC(C(=O)N2CCCC(c3nc4ccncc4[nH]3)C2)CC1 (configuration not stated)	i

An excerpt; rates above refer to the full screens.
